RGS16-Gao – modulates binding between human RGS16 and Galphao | bead-based flow cytometry RGS16-Galphao binding, fluorescence; actives lie on both sides | binding response (% of control), % at 10 µM | actives 0.38% (n = 220,000);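 active = below 25% or above 175%, edge rows of some plates excepted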;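 also: Galphao activated by GDP with aluminum fluoride before binding; 100% = wells without compound and 0% = beads without RGS; some results beyond the cut were filed as inactive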
PKD1 inh – PKD1 (human) kinase inhibition; Q15139; PKD1 kinase fluorescence polarization assay; inhibition, %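 (about 10 µM by stock and volumes)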; actives 0.056% (n = 200,000);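 active = inhibition of 50% or more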;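 also: controls were vehicle for no effect and a reference inhibitor for full effect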
Target sequence (Q15139 whole entry, looked up): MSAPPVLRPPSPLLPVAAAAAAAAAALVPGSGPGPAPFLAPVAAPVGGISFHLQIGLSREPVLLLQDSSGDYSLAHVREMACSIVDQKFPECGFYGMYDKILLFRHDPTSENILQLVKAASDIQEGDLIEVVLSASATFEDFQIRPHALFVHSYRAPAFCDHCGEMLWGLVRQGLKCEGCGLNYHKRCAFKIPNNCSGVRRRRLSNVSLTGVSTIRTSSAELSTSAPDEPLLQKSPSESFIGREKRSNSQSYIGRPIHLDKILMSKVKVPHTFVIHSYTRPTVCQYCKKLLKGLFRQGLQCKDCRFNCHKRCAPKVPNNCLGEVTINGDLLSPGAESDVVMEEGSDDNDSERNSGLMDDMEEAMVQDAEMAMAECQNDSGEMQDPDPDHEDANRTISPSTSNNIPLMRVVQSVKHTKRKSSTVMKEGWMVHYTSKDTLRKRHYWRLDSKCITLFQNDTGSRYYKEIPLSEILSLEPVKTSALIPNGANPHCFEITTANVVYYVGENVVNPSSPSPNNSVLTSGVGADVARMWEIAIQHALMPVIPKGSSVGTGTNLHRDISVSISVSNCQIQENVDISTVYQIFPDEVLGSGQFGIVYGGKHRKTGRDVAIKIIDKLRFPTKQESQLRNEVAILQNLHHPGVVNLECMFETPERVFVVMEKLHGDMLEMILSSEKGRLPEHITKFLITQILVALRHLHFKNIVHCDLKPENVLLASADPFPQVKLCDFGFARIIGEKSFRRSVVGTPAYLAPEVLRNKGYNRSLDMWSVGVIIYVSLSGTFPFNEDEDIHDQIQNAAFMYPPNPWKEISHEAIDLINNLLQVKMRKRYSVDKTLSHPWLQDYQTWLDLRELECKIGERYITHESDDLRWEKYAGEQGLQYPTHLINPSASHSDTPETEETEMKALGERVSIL
GALR2 ag – agonists of human galanin receptor 2 (GALR2); O43603; GALR2-expressing cells, agonist activation read-out; activation, %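 (tested at 5 µM)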; actives 0.48% (n = 140,000); AID 803;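 active = above mean plus 3 SD of all compounds, about 5% in these data, not always enough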;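 also: 0% = vehicle buffer wells and 100% = reference agonist at full effect; tested in CHO reporter cells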
Insulin prom inh – TRM-6 insulin promoter activity inhibition; TRM-6 cells (human fetal islet line), insulin promoter-eGFP reporter, imaging; reporter expression induced with tamoxifen; inhibition, % at 2 µM; actives 0.9% (n = 130,000);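 active = inhibition above the mean plus 3 SD, with well images judged a real hit on visual review, cut at about 60% in these data, passing the limit was not always enough; inconclusive = inhibition over the cutoff but images rejected on review; inactive = inhibition not above the cutoff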
HSV augment – increases HSV replication in cells | HSV replication augmentation in cells, fold increase | maximum fold increase | actives 0.005% (n = 220,000);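 active = peak rise of 1.5-fold or more in the series; inconclusive = self-fluorescent or not available for retest; tested in PC3 cells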;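 also: first round at 10 µM; read as green reporter fluorescence; hits show the peak of a series up to 25 µM; 1 = signal of infected wells without compound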
Insulin prom inh cell count – also measured in Insulin prom inh; calls as there; normalized cell count, %; measured here: cell count, toxicity; reference of the scale not given here;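 cells exposed to compound for 48 h; stained nuclei by imaging scaled within each plate; lower means fewer cells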
HSV augment primary fold – second read-out of HSV augment, no call of its own (marks repeat the call); fold increase; compound at 10 µM; measured here: primary screen fold increase 10 uM; tested in PC3 cells;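 GFP signal in the first replicate; 1 = infected wells without compound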
* hit, by the source's call; i = inactive; ? = inconclusive; / = no result given.

Screens in order: HSV augment primary fold	PKD1 inh	Insulin prom inh cell count	GALR2 ag	HSV augment	Insulin prom inh	RGS16-Gao
- O=S(=O)(c1ccc(NC(=S)NCCc2ccccc2)cc1)N1CCOCC1
  0.89	-10	53	0.6	i	-16	97
- CCCNC(=O)c1ccc(S(N)(=O)=O)cc1
  1	/	/	/	i	/	96
- CCCS(=O)(=O)N1CCC(C(=O)NCCc2ccc(C)cc2)CC1
  0.96	-5	/	-3.5	i	/	107
- CCN(CC)C(=O)C1CCCN(c2ccccc2[N+](=O)[O-])C1 (centres undefined)
  0.99	6	/	/	i	/	94
- O=C(CN(CC1CCCO1)C(=O)Cn1nnc(-c2ccc(F)cc2)n1)NC1CCCCC1 (centres undefined)
  0.9	3	105	-0.2	i	-18	93
- Cc1ccc(C(=O)N(CC(=O)Nc2ccc(Cl)c(Cl)c2)Cc2ccco2)cc1
  1	-19	68	-1.6	i	4	105
- CS(=O)(=O)N(CC(=O)N/N=C/c1cccc2c1OCCO2)c1ccccc1Br
  0.77	12	91	-2.7	i	12	102
- CCOc1ccc(N2CC(C(=O)N/N=C/c3sccc3C)CC2=O)cc1 (centres undefined)
  0.93	/	/	/	i	/	102
- COc1ccc(Br)cc1S(=O)(=O)N1CCN=C1C
  0.89	-26	64	-3.3	i	40	i
- CCCn1nnc(NC(=O)c2ccc(-c3cc(Cl)ccc3Cl)o2)n1
  0.94	2	76	/	i	31	103
- O=C(Cn1cc2c(n1)CCCC2)NC1CCN(Cc2ccccc2)CC1
  0.8	-15	/	-2.2	i	/	106
- O=C1c2cccc3cccc(c23)C(=O)N1CCN1CCN(CC(O)COCc2ccc(Cl)cc2)CC1 (centres undefined)
  0.56	-9	207	-0.6	i	-38	106
- CCOc1ccccc1NC(=O)c1cnc2n(c1=O)CCS2
  1	2	56	-1.7	i	-14	99
- [N-]=[N+]=CC(=O)c1ccnc(C(=O)C=[N+]=[N-])c1
  0.8	-4	/	-2.5	i	/	103
- CCOC(=O)c1c(NC(=O)Cn2nnc(-c3ccc(Cl)cc3)n2)sc(CC)c1C
  1	5	48	-0.9	i	-22	103
- CCOC(=O)CSc1nnc2cc(C)c3ccccc3n12
  1	-3	118	-0.9	i	67	105
- N/C(=N\OC(=O)COc1ccccc1)c1ccc(Cl)cc1
  1.1	4	/	0.0	i	/	95
- CCn1cc(C(=O)NCCCN2CCC(C)CC2)c2cc(OC)c(OC)cc2c1=O
  0.7	-5	/	0.0	i	/	101
- O=C(c1cccc([N+](=O)[O-])c1)N1CCN(C/C=C/c2ccccc2)CC1
  1.3	/	/	/	i	/	101
- S=C(N/N=C/c1cccc2ccccc12)Nc1cccc(Cl)c1
  1	/	/	/	i	/	96

Further records
Screens in order: HSV augment primary fold	PKD1 inh	Insulin prom inh cell count	GALR2 ag	HSV augment	Insulin prom inh	RGS16-Gao
- C/C(=N\NC(=O)C1(C)CC1(Br)Br)c1cccc(NC(=O)C(C)(C)C)c1 (centres undefined)
  0.92	-1	127	0.6	i	17	106
- CCCOC(=O)c1c(NC(=O)/C=C/c2cnn(C)c2C)sc(C(=O)OCC)c1C
  1.2	-14	75	-1.9	i	-4	185
- CCC(=O)Nc1nnc(SCc2ccc(F)cc2)s1
  1.2	-10	172	-0.4	i	-40	96
- CN(C)CCNC(=O)c1cccc(S(=O)(=O)Nc2ccccc2F)c1
  0.94	-10	118	/	i	-6	98
- CCCc1[nH]n(-c2ccc([N+](=O)[O-])cc2)c(=O)c1C=NCCc1ccc(OC)c(OC)c1
  0.88	-2	47	/	i	66	114
- O=C(NCc1ccco1)c1nc2c(nnn2Cc2cccc(Cl)c2)c(=O)[nH]1
  1.4	0	78	-0.9	i	-20	92
- O=C1CC(c2ccc3c(c2)OCO3)C2=C(CCCC2=O)N1 (centres undefined)
  0.94	3	/	-2.1	i	/	112
- O=C(Cc1n[nH]c(=O)c2ccccc12)NCc1ccccc1
  1	1	/	/	i	/	100
- CCOC(=O)c1c(C)[nH]c(C)c1C(=O)CSc1nnc(-c2ccc(OC(F)F)cc2)o1
  1.1	2	105	0.8	i	58	107
- O=C(Nc1ccccc1O)c1ccccc1O
  0.94	-4	/	-1.5	i	/	103
- COc1ccc(/C=N/NC(=O)c2cccnc2)cc1CN1CCc2ccccc2C1
  1.2	/	/	/	i	/	102
- COc1cc(C(=O)Nc2cccc3ncccc23)cc(OC)c1OC
  0.94	-3	/	-1.5	i	/	103
- Cc1onc(-c2ccccc2Cl)c1C(=O)OCc1cnc(Cl)s1
  0.88	-2	/	/	i	/	103
- COc1ccc([N+](=O)[O-])cc1NC(=O)c1ccc(Br)s1
  0.98	0	/	/	i	/	94
- CC(=O)NC(=S)Nc1ccccc1N1CCN(C(=O)c2ccccc2)CC1
  0.93	3	118	/	i	40	99
- Cc1ccc(NCc2nnc(SCC(=O)Nc3ccccc3)n2CC2CCCO2)c(C)c1 (centres undefined)
  0.91	-14	112	0.3	i	-24	100
- Cc1cccn2cc(-c3ccc4c(c3)NC(=O)CO4)nc12
  1	/	/	/	i	/	100
- COC(=O)C1=C(C(=O)OC)[C@@H]2N(C)c3ccccc3[C@@]23C[C@@H](C(=O)OC)N(C(=O)COCc2ccccc2)C3=N1
  0.85	/	/	/	i	/	91
- Cc1cc(NC(=O)c2cccc(F)c2)ncc1NC(=O)c1ccco1
  0.87	-5	104	-1.2	i	-5	114
- CCn1c(SCC(=O)Nc2ccc(NC(C)=O)cc2)nnc1C1CC1
  0.96	-16	/	0.7	i	/	100

Following part:
Screens in order: HSV augment primary fold	PKD1 inh	Insulin prom inh cell count	GALR2 ag	HSV augment	Insulin prom inh	RGS16-Gao
- COc1ccccc1NC(=O)C(=O)Nc1ccccn1
  0.91	-10	111	-1.3	i	43	100
- O=C(CNCc1ccc(Cl)cc1)NCc1ccco1
  1.1	-13	144	0.0	i	-15	103
- Nn1c(Cc2cccc3ccccc23)nnc1SCC(=O)N1CC(=O)Nc2ccccc21
  0.88	-4	62	-2.0	i	-11	99
- CN(C)CCNc1ncnc2c1cnn2-c1ccc(Cl)cc1
  0.56	4	/	-3.8	i	/	99
- O=C(NC1CCS(=O)(=O)C1)c1ccc(S(=O)(=O)N2CCCCC2)cc1 (centres undefined)
  1.1	1	/	/	i	/	97
- CCOC(=O)N1CCC(NC(=O)C2CCN(C(=O)c3cc4sccc4n3CC)CC2)CC1
  1	/	/	/	i	/	92
- COc1ccc(CSc2n[nH]c(C)n2)cc1[N+](=O)[O-]
  1.2	-5	52	-0.3	i	-60	79
- Cc1ccccc1Nc1nc(-c2sc(NC(=O)c3cccc(Cl)c3)nc2C)cs1
  1.1	-4	81	0.4	i	27	108
- O=c1[nH]c(N2CCCCC2)nc2ncn(Cc3ccccc3)c12
  0.88	/	/	/	i	/	110
- CCC(C)c1ccc(NC(=O)C2CCCN(c3ncccn3)C2)cc1 (centres undefined)
  0.96	4	124	-1.7	i	-17	101
- CCn1c2ccccc2c2cc(NC(=O)CSc3nnc(-c4cccc(Cl)c4)o3)ccc21
  /	6	/	-2.0	/	/	92
- c1ccc(OCCCc2nc(-c3cccnc3)no2)cc1
  1	-10	77	-1.4	i	-27	118
- CN(C)CCn1c(NC(=O)c2ccc(Cl)cc2)nc2ccccc21
  0.85	7	/	-1.3	i	/	145
- COc1ccc(-n2c(SCC(=O)N/N=C(\C)c3cccnc3)nc3ccccc3c2=O)cc1
  1	/	/	/	i	/	99
- COc1ccc(NC(=O)Nc2cccc(C(F)(F)F)c2)cn1
  0.97	2	/	/	i	/	102
- CCN(CC)c1ccc2c(Cl)cc(=O)oc2c1
  /	4	91	9.3	?	20	103
- Oc1c(C2=NCCNC(C(F)(F)F)=C2)ccc2ccccc12
  0.83	-3	132	/	i	18	104
- COc1ccc(CCNC(=O)CNCC2CCCO2)cc1OC (centres undefined)
  1	1	/	-3.7	i	/	98
- O=C(N/N=C/c1cccs1)c1cc(-c2cccc3ccccc23)n[nH]1
  0.89	9	90	-0.5	i	3	103
- Nc1ccc(-c2cn3cccnc3n2)cc1
  0.99	5	/	/	i	/	100

(more compounds)
Screens in order: HSV augment primary fold	PKD1 inh	Insulin prom inh cell count	GALR2 ag	HSV augment	Insulin prom inh	RGS16-Gao
- CCOc1cc(/C=N/NC(=O)c2cccnc2)ccc1OCC(N)=O
  1.1	-1	123	/	i	43	105
- Cc1cc(C)c2[nH]c(=O)c(C(c3nnnn3CC3CCCO3)N3CCCC(C)C3)cc2c1 (centres undefined)
  0.84	8	/	-0.8	i	/	99
- CC(=O)c1cccc(NC(=O)N2CCC(c3ccc(C)cc3)C2)c1 (centres undefined)
  0.98	-1	/	/	i	/	98
- COCC(=O)OCC(=O)Nc1cc(C)c(C)cc1[N+](=O)[O-]
  1.1	-8	108	-2.1	i	12	82
- Cc1csc(=Nc2ccccc2)n1CCCN1CCCC1=O
  1	3	94	/	i	-37	102
- N#C/C(=N\Nc1ccc(S(=O)(=O)N2CCOCC2)cc1)C(N)=S
  0.79	/	/	/	i	/	99
- Cc1ccc(-c2nnn(CC(=O)N(CC(=O)NCC3CCCO3)c3ccccc3)n2)o1 (centres undefined)
  0.81	5	61	-2.5	i	i	110
- COc1ccc(-c2cc(C(F)(F)F)c3c(n2)sc2c(O)cc(=O)[nH]c23)c(OC)c1
  /	2	128	0.8	?	-33	96
- O=c1oc2ccccc2c(NCc2ccccc2F)c1[N+](=O)[O-]
  1.1	-6	107	0.0	i	-10	101
- CC1C=CCC2C(=O)N(c3ccc(OC(=O)c4ccco4)cc3)C(=O)C12 (centres undefined)
  1.1	2	/	/	i	/	104

Among those listed so far, these have an NH in an aromatic ring:
Screens in order: HSV augment primary fold	PKD1 inh	Insulin prom inh cell count	GALR2 ag	HSV augment	Insulin prom inh	RGS16-Gao
- CCCc1[nH]n(-c2ccc([N+](=O)[O-])cc2)c(=O)c1C=NCCc1ccc(OC)c(OC)c1
  0.88	-2	47	/	i	66	114
- O=C(NCc1ccco1)c1nc2c(nnn2Cc2cccc(Cl)c2)c(=O)[nH]1
  1.4	0	78	-0.9	i	-20	92
- O=C(Cc1n[nH]c(=O)c2ccccc12)NCc1ccccc1
  1	1	/	/	i	/	100
- CCOC(=O)c1c(C)[nH]c(C)c1C(=O)CSc1nnc(-c2ccc(OC(F)F)cc2)o1
  1.1	2	105	0.8	i	58	107
- COc1ccc(CSc2n[nH]c(C)n2)cc1[N+](=O)[O-]
  1.2	-5	52	-0.3	i	-60	79
- O=c1[nH]c(N2CCCCC2)nc2ncn(Cc3ccccc3)c12
  0.88	/	/	/	i	/	110
- O=C(N/N=C/c1cccs1)c1cc(-c2cccc3ccccc23)n[nH]1
  0.89	9	90	-0.5	i	3	103
- Cc1cc(C)c2[nH]c(=O)c(C(c3nnnn3CC3CCCO3)N3CCCC(C)C3)cc2c1 (centres undefined)
  0.84	8	/	-0.8	i	/	99
- COc1ccc(-c2cc(C(F)(F)F)c3c(n2)sc2c(O)cc(=O)[nH]c23)c(OC)c1
  /	2	128	0.8	?	-33	96

Compound activity (PubChem BioAssay)
